Menin MLL FP FL = qHTS Assay for Inhibitors Targeting the Menin-MLL Interaction in MLL Related Leukemias: Competition With Fluorescein Labeled MLL-derived Peptide; FP activity change, % at 61.4 µM; AID 1766, 2009; 290,000 tested, under 10 active; Fluorescence polarization, fluorescein-MLL peptide displacement from menin; inconclusive = falling polarisation curve, or a change in total fluorescence; inactive = total fluorescence flat and polarisation flat or rising; no compound was filed as active; the % refers to the polarisation; negative = inhibition;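 also: % of control where 0% means no effect; inhibitors lower the polarisation; unlabelled MLL peptide was the positive control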
gsp antagonist = qHTS for Antagonists of gsp, the Etiologic Mutation Responsible for Fibrous Dysplasia/McCune-Albright Syndrome: qHTS; Potency, µM (series often up to 76.9 µM), for inactives: at the highest dose activity change, negative = inhibition, hits mostly inhibitors; 340,000 tested, 0.4% active; gsp-mutant cells, cAMP HTRF, 30 min; control for the full effect not named in the record; active = falling curve of any shape with a large fitted effect; inconclusive = falling curve, mostly with a smaller effect; inactive = flat or rising curve; cell line not stated here;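 also: intracellular cAMP measured with PDE inhibitor Ro 20-1724 present during compound exposure; potency is read from the fitted curve at half-maximal effect; % is scaled to controls: 0 for no effect and ±100 for the full control effect; nearly all actives have a fitted effect of over 65% in size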
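HTRF cAMP measurement after 30 min RT detection following 30 min, 37C compound treatment alongside […] (added as 300 uM solution) in G418-selected cells seeded at 2000/well and grown 16–24 h.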
PINK1 expr mod = A Quantitative High throughput Screen to Identify Chemical Modulators of PINK1 Expression | PINK1 immunofluorescence, high-content cytometry, 24 h | 410,000 tested, 0.2% active | Potency, µM (doses to about 76.6 µM), inactives show at the highest dose activation (PINK1 increase), actives largely listed as activators; active = well fitted activation curve with a large enough effect; inconclusive = small, poorly fitted or top-dose-only effect; inactive = flat fitted curve, though single readings scatter; cell line not stated here;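 also: potency is read from the fitted curve at half-maximal effect; % of control where 0% means no effect; nearly all actives have a fitted effect of over 65% in size; a mitochondrial uncoupler was the plate control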
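PINK1 protein, normally rapidly degraded, was detected by immunofluorescence after 24 hour compound treatment of a stable cell line. Titration data (5 concentrations) came from laser-scanning cytometry, with CCCP-treated wells as controls.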
Sfp inh = qHTS Assay for Inhibitors of Bacillus subtilis Sfp phosphopantetheinyl transferase (PPTase). AID 1490, 2009. Potency, µM, for the others: max response, negative = inhibition, most hits filed as inhibitors. Biochemical Sfp PPTase activity, qHTS. 310,000 tested, 3.5% active. 4'-phosphopantetheinyl transferase ffp (Bacillus subtilis), Q9F4F7; active = well fitted inhibition curve with a large enough effect; inconclusive = small, poorly fitted or top-dose-only effect, or another doubt; inactive = no such curve, though single readings can be large or run the other way;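 also: the enzyme is Sfp with the accession as filed and its product quenches rhodamine fluorescence; potency is read from the fitted curve at half-maximal effect; 0% = enzyme reaction without inhibitor and -100% = no enzyme wells; top concentration of the series not given in the record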
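Fluorescence-quenching assay: 15 nM Sfp-PPTase preincubated 15 min at room temperature with compound, then 5 uM rhodamine-CoA and 12.5 uM BHQ-2-labelled YbbR peptide added. Fluorescence (ex 525/em 598 nm) read at start and after 30 min; difference gives rate.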
gsp ag = qHTS for Agonist of gsp, the Etiologic Mutation Responsible for Fibrous Dysplasia/McCune-Albright Syndrome: qHTS; gsp mutant cells, cAMP HTRF, 30 min; control for the full effect not named in the record; Potency, µM (titrated, usually from 76.9 µM), for the others: at the top dose activation (cAMP increase), most hits filed as activators; 340,000 tested, 0.13% active; AID 624287, 2012; active = well fitted activation curve with a large enough effect; inconclusive = small, poorly fitted or top-dose-only effect, or another doubt; inactive = no such curve, though single readings can be large or run the other way; cell line not stated here;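 also: phosphodiesterase inhibitor Ro 20-1724 added with compounds to block cAMP breakdown; potency is read from the fitted curve at half-maximal effect; nearly all actives have a fitted effect of over 60% in size; about a fifth of the inactives were tested at one dose only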
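Cells in DMEM/10% FBS with G418 were pretreated with compounds in DMSO plus […] (300 uM stock) for 30 min at 37C. cAMP was measured by HTRF (cAMP-d2 plus anti-cAMP antibody-K) after 30 min at room temperature.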
D2 ag = Beta-Arrestin HTS for Positive Allosteric Modulators of the Human D2 Dopamine Receptor: Agonists; D(2) dopamine receptor (Homo sapiens), P14416; DiscoveRx PathHunter D2 beta-arrestin, luminescence, 90 min; 100% = 57 uM dopamine signal; activation, % (test concentration not listed); 360,000 tested, 0.084% active; AID 624465, 2012; in the data active = activation above about 40%; inconclusive = about 15% to 40%; inactive = below about 15%; also: compound concentration not given in the record; the text of the record calls up to 30% inactive
Target sequence (P14416 whole entry, looked up): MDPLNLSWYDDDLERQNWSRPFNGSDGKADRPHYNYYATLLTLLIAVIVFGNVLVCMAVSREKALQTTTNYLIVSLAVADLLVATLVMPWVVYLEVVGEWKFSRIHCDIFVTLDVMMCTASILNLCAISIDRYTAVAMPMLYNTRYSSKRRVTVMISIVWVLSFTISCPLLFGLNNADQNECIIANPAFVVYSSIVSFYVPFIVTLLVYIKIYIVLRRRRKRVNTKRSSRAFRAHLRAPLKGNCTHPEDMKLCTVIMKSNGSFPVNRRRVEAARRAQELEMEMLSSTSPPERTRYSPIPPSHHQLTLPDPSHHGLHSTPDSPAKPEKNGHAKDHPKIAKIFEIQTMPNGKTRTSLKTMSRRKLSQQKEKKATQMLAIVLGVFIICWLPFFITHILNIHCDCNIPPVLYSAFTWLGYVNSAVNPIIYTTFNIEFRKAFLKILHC
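DiscoveRx PathHunter D2 beta-arrestin cells (2,100/well) attached overnight, then compound-stimulated 90 min at 37 C in HBSS/10 mM HEPES/0.1% Tween-20 buffer; beta-galactosidase complementation read by luminescence after 1 h at ambient temperature. Dopamine 57 uM final (EC100) as control.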
ClpP mod = qHTS Assay for Activators of ClpP | ATP-dependent Clp protease proteolytic subunit (Bacillus subtilis (strain 168)), P80244 | purified B. subtilis ClpP, FRET peptide cleavage, 20 min | Potency, µM (highest dose often 57.5 µM), for the others: at the highest dose activity change, negative = active | 340,000 tested, 1.9% active; active = well fitted falling curve with a large enough effect; inconclusive = small, poorly fitted or top-dose-only effect; inactive = no such curve, though single readings can be large or run the other way; also: potency is read from the fitted curve at half-maximal effect; the source files actives as falling curves though it sought activators and does not explain the sign; nearly all actives have a fitted effect of over 65% in size; many hits overshoot -100%
Target sequence (P80244 whole entry, looked up): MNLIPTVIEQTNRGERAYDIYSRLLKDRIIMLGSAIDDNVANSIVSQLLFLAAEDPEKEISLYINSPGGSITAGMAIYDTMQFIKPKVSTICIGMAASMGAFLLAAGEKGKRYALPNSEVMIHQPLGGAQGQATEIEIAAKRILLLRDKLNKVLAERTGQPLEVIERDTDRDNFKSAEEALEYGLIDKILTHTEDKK
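Purified B. subtilis ClpP, 10 microg/mL final in Tris/HCl pH8 with KCl, BSA, glycerol and Tween-20, cleaved an Abz/nitrotyrosine-quenched decapeptide. Fluorescence (ex 320, em 430) was read at 0 and 20 min at room temperature. Delta was normalized to 5.8 microM ADEP and DMSO/no-enzyme controls.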
The depositor's hits bear a star; ? = inconclusive; . = no result given; & = joins results of further samples; [ ] = dose if it differs, or a comment.

SMILES	Menin MLL FP FL	gsp antagonist	PINK1 expr mod	Sfp inh	gsp ag	D2 ag	ClpP mod
COC(=O)[C@@]12CCCCN1[C@H](c1ccc(-c3cccc(Cl)c3)cc1)[C@@H]1C(=O)N(C)C(=O)[C@@H]12	.	10.6%	0.8%	.	14.5%	-2.0	-1.0%
COc1ccc(N(C(=O)Cn2nnc(-c3ccc(Cl)cc3)n2)C(C(=O)NCC2CCCO2)c2ccncc2)cc1 (stereo unspecified)	-2.1	-4.2%	4.6%	5.3%	19.3%[15.4 µM]	0.3	.
COc1cccc(C(=O)NCC(=O)OCC(=O)NC2CCCCC2)c1	.	-6.2%	-2.7%	.	-15.9%	2.7	-1.1%
Cn1c(=O)cc(SCC(=O)NCC2COc3ccccc3O2)c2ccccc21 (stereo unspecified)	1.4	-9.6%	-1.0%	-5.2%	11.4%	-3.7	-2.7%
CCN1CCCC1CNC(=O)Cn1cnc2sc(C)c(S(=O)(=O)N3CCC(C)CC3)c2c1=O (stereo unspecified)	3.2	12.2%	-3.5%	-9.9%	-31.2%[inhibitor]	-3.9	-0.8%
O=C(c1ccc(F)cc1)N1CCCC(C(=O)N2CCCCC2)C1 (stereo unspecified)	.	-7.3%	-0.2%	1.3%	15.8%	-9.0	0.1%
c1ccc(CCN(Cc2ccccc2)C2CCN(C3CCCC3)CC2)cc1	-10.3	-24.1%	3.8%	50.1µM*	3.8%[15.4 µM]	-1.5	.
CCCCn1c(N)c(N(CC(C)C)C(=O)c2ccc(N3C(=O)c4ccccc4C3=O)cc2)c(=O)[nH]c1=O	.	2.8%	0.8%	.	12.3%	-2.2	-12.8%
CC(O)c1cccc(NC(=O)CCC(=O)O)c1 (stereo unspecified)	2.8	0.8%	.	-2.8%	-11.8%	-2.5	0.6%
O=C(NC1CCCC1)C(c1ccc(F)cc1)N(Cc1ccccc1)C(=O)c1csnn1 (stereo unspecified)	-0.3	-8.4%	2.1%	10.1%	24.0%	-5.3	.
Cc1c(O)ccc2c(CN3CCN(Cc4ccccc4)CC3)cc(=O)oc12	2.2	?	-1.3%	9.2%	-1.3%	-2.8	3.3%
COc1cc(/C=C2\SC(=O)N(CC(=O)Nc3cccc(C)c3)C2=O)ccc1OC(C)C(=O)O (stereo unspecified)	.	-3.7%	-2.4%	.	8.3%	0.9	.
O=C(C1CC(=O)N(c2ccc3c(c2)OCCO3)C1)N1CCN(S(=O)(=O)c2ccccc2F)CC1 (stereo unspecified)	.	4.0%	-0.4%	.	32.5%	0.6	1.3%
N#Cc1ccc(CN2CCC3(CC2)CCN(C(=O)c2csnn2)CC3)cc1	3.4	.	0.0%	10.8%	.	.	.
COc1cc(C=O)ccc1OCc1cccc(Br)c1	6.4	6.5%	3.3%	3.0%	-17.3%	1.5	25.1µM*
CC1(C)CC(NC(=O)c2cccc([N+](=O)[O-])c2)CC(C)(C)N1	5.8	3.2%	1.2%	19.6%	-20.6%[15.4 µM]	2.1	-1.2%
CCCn1c2ccccc2c2cnn(CC(=O)NC(C)CC)c(=O)c21 (stereo unspecified)	-0.5	8.8%	-0.5%&17.5%	8.9%	-38.3%	0.3	3.9%&3.9%
CCOC(=O)CN(C(=O)COc1nc(C)cc(C)c1C#N)c1ccc(Cl)cc1	1.9	-12.3%	-1.0%	-6.5%	-4.4%	-3.0	-2.6%
O=C1OCc2cc(NS(=O)(=O)c3cccs3)ccc21	-0.2	-18.1%	4.8%[38.3 µM]	10.6%	-2.7%	-0.9	-0.2%
CC(=O)NCC(=O)OC(C)C(=O)Nc1ccc(C(C)=O)cc1 (stereo unspecified)	2.1	15.7%	?	27.9%	-22.5%	-0.7	-1.9%
CCN1C(=O)CSc2ccc(C(=O)NCc3ccc(OC)cc3)cc21	5.8	-4.6%	0.1%[38.3 µM]	16.0%	-12.2%	-1.4	-0.3%
COc1cc(CNCCc2ccccc2F)ccc1OCc1ccc(Cl)nc1	?	-1.5%	4.5%	13.2%	8.8%	-1.4	-1.1%
CCN(CC)C1CC(=O)N(c2ccc(Br)cc2)C1=O (stereo unspecified)	-2.3	9.4%	2.2%	-9.4%	-13.9%[15.4 µM]	-3.0	1.5%
CC(C)(C)c1ccc(C(=O)NC(=S)Nc2nc3c(s2)CCCC3)cc1	4.1	0.4%	-1.6%	17.0%	6.8%	-4.6	.
Cc1cc(NC(=O)CSc2nnc(C3CC3)n2N)c([N+](=O)[O-])cc1C	2.0	0.2%	-1.2%	9.1%	3.1%	0.4	.
Other entries.
SMILES	Menin MLL FP FL	gsp antagonist	PINK1 expr mod	Sfp inh	gsp ag	D2 ag	ClpP mod
CCOC(=O)N1CCC(N2Cc3cccc(C(=O)N4CCN(c5cccc(Cl)c5)CC4)c3C2=O)CC1	-1.5	-13.5%	-0.7%	-1.7%	-38.5%[inhibitor]	5.3	-1.6%
CC(=O)Nc1ccc(S(=O)(=O)N2CCC(C(=O)NCCc3c[nH]c4ccccc34)CC2)cc1	-1.1	-5.2%	0.8%	9.8%	-23.1%	-2.3	1.1%
COc1cc(C(=O)Nc2ccc(S(=O)(=O)Nc3nccc(C)n3)cc2)c([N+](=O)[O-])cc1OC	1.0	0.1%	2.8%	10.6%	19.1%[15.4 µM]	-4.1	.
CC(C)(C)Nc1ncnc2sc(-c3ccccc3)cc12	5.8	-24.3%	?	-8.9%	-7.5%	12.1	3.9%
CN(C)c1ncc2nc(CCc3ccccc3)c(=O)n(Cc3ccc(F)cc3)c2n1	?	.	4.8%	?	.	.	.
COc1ccc(-c2cc(C(F)(F)F)nc(SCCC(=O)N3CCN(C)CC3)n2)cc1	.	5.9%	1.7%	.	?	-3.2	-1.9%
O=C(Cn1cnc2c(oc3ccccc32)c1=O)c1ccccc1	0.2	1.1%	-2.4%	13.7%	-6.3%	-2.7	0.3%
Cc1cc(C(=O)NCc2ccc(C(=O)O)o2)c(C)o1	2.0	4.9%	4.2%[38.3 µM]	6.7%	0.2%	-0.7	-2.4%
CCOC(=O)C1=CN(Cc2cccc(F)c2)S(=O)(=O)N(CC)C1CCc1ccccc1 (stereo unspecified)	.	2.8%	8.6%	.	.	-1.9	-2.0%
CCOC(=O)c1cc2sccc2n1CC(=O)O	2.2	-2.2%	.	14.9%	-8.3%	-2.5	-1.2%
COc1ccc(C23CC4CC(CC(C4)C2)C3)cc1C(=O)NCCN(C)C	-1.9	1.5%	-2.5%	-29.1%	-28.5%	-5.8	-4.2%
CC(C)CN(C(=O)c1cccc(S(=O)(=O)N2CCN(C)CC2)c1)C1CCS(=O)(=O)C1 (stereo unspecified)	.	12.9%	2.6%	.	-4.7%	-4.1	-1.8%
COc1ccc(CN(CC(=O)NCc2ccco2)C(=O)CCC(=O)Nc2nccs2)cc1	0.0	-7.3%[15.4 µM]	-1.7%	18.5%	3.2%	-3.6	-5.0%
COc1ccc(S(=O)(=O)Nc2ccc3oc4ncccc4c(=O)c3c2)cc1OC	0.7	2.9%	5.0%	11.2%	14.8%[15.4 µM]	-1.4	-3.7%
COc1ccc(/C=N/NC(=O)c2ccc(-c3ccccc3)cc2)cc1O	2.7	-3.3%	6.6%	-0.5%	-20.1%	2.8	-21.5%
CC1CCCCC1NC(=O)c1ccncc1 (stereo unspecified)	-1.0	9.5%	0.1%	6.6%	4.2%	-4.0	-4.6%
COc1ccc(OC2C(=O)N(Cc3ccc4c(c3)OCO4)C2c2cccs2)cc1 (stereo unspecified)	5.3	?	-8.2%[38.3 µM]	19.5%	-46.4%[inhibitor]	2.8	-2.2%
O=S(=O)(c1ccccc1Br)N1CCC(O)(c2cccnc2)CC1	-2.6	-2.1%	-0.6%	16.0%	-5.0%[15.4 µM]	-0.4	.
CCn1c(SCC(=O)NNC(=S)Nc2ccccc2)nnc1-c1ccc(Cl)cc1	-1.0	-0.1%	2.6%	12.7%	3.9%	-8.3	1.9%
O=S(=O)(Nc1cccc(-c2cn3c(n2)SCC3)c1)c1cccs1	-1.0	1.0%	3.3%	2.5%	-6.2%	-4.3	1.5%
CC(C)c1ccc(S(=O)(=O)N2CCC(C(=O)N3CCN(c4cccc(Cl)c4)CC3)CC2)cc1	.	-6.5%	0.6%	.	?	-1.2	1.1%
CCOc1ccccc1N(C)C(=O)c1sc2ncn(CC(=O)N3CCCCC3C)c(=O)c2c1C (stereo unspecified)	.	?	3.7%	11.6%	?	3.1	.
CCOC(=O)N1CCN(C(=O)c2ccc3oc(CCCc4ccccc4)nc3c2)CC1	.	-20.1%	0.9%	-1.1%	-10.2%	2.1	-0.5%
Cc1noc(C)c1CSc1nc2ccccc2c(=O)n1-c1ccc(F)cc1F	2.1	-6.1%	4.1%	11.0%	17.4%	-3.4	-3.0%
CCOc1ccc(OCC)c2sc(C)nc12	0.9	-8.1%	-1.0%	-6.1%	-20.1%	-4.3	-7.4%
(next part)
SMILES	Menin MLL FP FL	gsp antagonist	PINK1 expr mod	Sfp inh	gsp ag	D2 ag	ClpP mod
CC(C(=O)NCC1(c2ccccc2)CCOCC1)N1CCOCC1 (stereo unspecified)	0.2	5.9%	0.7%	?	?	0.3	.
CCc1onc(C)c1C(=O)Nc1cc(C)ccc1OC	7.5	8.1%	-2.2%	-8.5%	0.2%	-5.1	0.3%
Cc1ccc(Nc2cnn(C34CC5CC(CC(CC(=O)O)(C5)C3)C4)c(=O)c2Cl)cc1C	2.2	-15.5%	.	12.0%	15.4%	-0.8	0.4%
Cc1cccc(N=C2NC(=O)/C(=C/C=C/c3ccco3)S2)c1	25.6	-0.8%	9.3%	50.1µM*	2.2%	2.3	-2.8%
O=C(Oc1cccc(OC(=O)N2CCCCC2)c1)N1CCCCC1	-2.5	-0.9%	0.3%	9.9%	-33.9%[inhibitor]	-1.9	0.3%
COc1ccccc1-c1cc(C(F)(F)F)nc(S(=O)(=O)CCCC(=O)NC(C)C)n1	2.6	16.3%	-1.8%	8.6%	-30.4%[inhibitor]	-4.6	-4.6%

Source: PubChem (National Center for Advancing Translational Sciences (NCATS))
